# Source: PubChem BioAssay
# D2 agonist = activates the human D2 dopamine receptor; 360,000 tested, 0.084% active; P14416; activation, % (test concentration not listed); AID 624465; DiscoveRx PathHunter D2 beta-arrestin, luminescence, 90 min; 100% = 57 uM dopamine signal; in the data active = activation above about 40%; inconclusive = about 15% to 40%; inactive = below about 15%; further: compound concentration not given in the record; the text of the record calls up to 30% inactive
# Target sequence (P14416 whole entry, looked up): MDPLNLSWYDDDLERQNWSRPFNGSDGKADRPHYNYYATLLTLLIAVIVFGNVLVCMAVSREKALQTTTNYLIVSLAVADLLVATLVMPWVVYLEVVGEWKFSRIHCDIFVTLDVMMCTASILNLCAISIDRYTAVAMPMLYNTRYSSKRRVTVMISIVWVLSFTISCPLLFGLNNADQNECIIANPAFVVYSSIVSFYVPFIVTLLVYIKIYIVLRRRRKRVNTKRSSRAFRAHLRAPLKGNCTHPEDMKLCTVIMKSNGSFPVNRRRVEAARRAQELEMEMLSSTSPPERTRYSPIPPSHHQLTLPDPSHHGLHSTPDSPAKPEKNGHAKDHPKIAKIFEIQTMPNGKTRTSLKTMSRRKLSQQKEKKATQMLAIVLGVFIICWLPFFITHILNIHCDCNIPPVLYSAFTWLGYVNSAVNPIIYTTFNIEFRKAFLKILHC
#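 Agonist mode: compounds alone added to overnight-plated D2 PathHunter cells for 90 min at 37 C, with 57 uM final dopamine (EC100) defining full response. Beta-arrestin recruitment detected by chemiluminescent reagent, read after 1 h at ambient temperature.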
# TRPML1 ag = activates the human TRPML1 channel | Q9GZU1 | TRPML1-expressing cells, Ca2+ dye fluorescence, FDSS; host cell line not named in the record; reference of the full effect not given here | activation, % (concentration not given with the values) | 410,000 tested, 0.12% active | AID 624414; in the data active = activation above about 50%; inconclusive = about 30% to 50%; inactive = below about 30%; further: 0% is about no effect; the text of the record puts the active cut at 80%
# Target sequence (Q9GZU1 whole entry, looked up): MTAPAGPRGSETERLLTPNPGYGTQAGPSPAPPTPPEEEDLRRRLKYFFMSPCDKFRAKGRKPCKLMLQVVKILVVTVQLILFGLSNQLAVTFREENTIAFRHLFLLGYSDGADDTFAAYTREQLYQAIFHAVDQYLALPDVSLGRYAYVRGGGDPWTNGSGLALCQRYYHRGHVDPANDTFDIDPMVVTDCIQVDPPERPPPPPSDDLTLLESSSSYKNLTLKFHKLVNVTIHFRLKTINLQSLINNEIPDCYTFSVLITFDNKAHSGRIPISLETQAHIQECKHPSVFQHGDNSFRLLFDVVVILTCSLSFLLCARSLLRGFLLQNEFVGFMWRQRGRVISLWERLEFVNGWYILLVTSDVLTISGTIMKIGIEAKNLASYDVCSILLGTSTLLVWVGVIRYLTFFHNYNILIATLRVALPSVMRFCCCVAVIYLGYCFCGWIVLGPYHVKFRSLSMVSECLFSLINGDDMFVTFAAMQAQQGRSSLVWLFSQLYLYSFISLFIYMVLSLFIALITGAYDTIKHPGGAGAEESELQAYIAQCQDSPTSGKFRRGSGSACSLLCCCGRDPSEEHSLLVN
#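 Kinetic FDSS Ca2+ read in Tet-induced TRPML1-DL cells (ABD Ca8 dye plus quencher, 45-90 min RT loading): baseline, then compound, then 110 s agonist window; EC80 agonist 54-4 at 4uM final added afterwards for a 110 s antagonist window.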
# PINK1 modulator = changes PINK1 expression | PINK1 immunofluorescence, high-content cytometry, 24 h | Potency, µM (titrated, usually from 76.6 µM), for the others: top-dose activation (PINK1 increase), most hits filed as activators | 410,000 tested, 0.2% active | AID 624263; active = well fitted activation curve with a large enough effect; inconclusive = small, poorly fitted or top-dose-only effect; inactive = flat fitted curve, though single readings scatter; cell line not stated here;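 further: potency means the concentration at half of the fitted maximal effect; % of control where 0% means no effect; nearly all actives have a fitted effect of over 65% in size; a mitochondrial uncoupler was the plate control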
#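 Measures PINK1 amount and localization on or inside mitochondria by immunofluorescence. Stable cells get compounds at 5 concentrations for 24 hours before fixation and staining; CCCP controls included.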
# CtBP-E1A inh = inhibitors of CtBP/E1A interaction; AlphaScreen GST-E1A/His-CtBP binding, 1536-well; active compounds read low; control for the full effect not named in the record; activity change, % (concentration not given with the values); 340,000 tested, 0.49% active; in the data active means activity change below about -65%; inconclusive means about -30% to -65%; inactive means above about -30%; further: on the % scale 0 is the no-effect control and ±100 the full control effect
#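 In 5 uL wells, 23 nL compound meets equimolar GST-E1A and His-CtBP (5X stock 125 nM each) for 2 h, 37 °C. Beads (5X, 50 ug/mL) then 1 h, 37 °C, dark.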
# TRPML1 inh = human mucolipin-1 channel inhibition | Q9GZU1 | TRPML1-inducible cells, Ca2+ dye fluorescence, FDSS; active compounds read low; inhibition of EC80 agonist-evoked calcium signal | activity change, negative = inhibition, % (concentration not given with the values) | 390,000 tested, 0.02% active; in the data active means activity change below about -50%; inconclusive means about -30% to -50%; inactive means above about -30%;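 further: stimulus is agonist 54-4 at its EC80 concentration; on the % scale 0 is the no-effect control and ±100 the full control effect; the text of the record puts the active cut at -80%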
#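 Calcium fluorescence in TRPML1-DL cells induced overnight with Tet: a 110 s read after compound pin addition, then a 110 s antagonist read after challenge with 54-4 at 4 uM final (EC80).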
# Six1-Eya2 blk = Six1/Eya2 interaction inhibition; Q15475+O00167; AlphaScreen GST-Six1/His-Eya2 binding, biochemical; active compounds read low; control for the full effect not named in the record; activity change, % (no concentration beside the values); 360,000 tested, 0.56% active; AID 651725; in the data active = activity change below about -65%; inconclusive = about -30% to -65%; inactive = above about -30%; further: on the % scale 0 is the no-effect control and ±100 the full control effect
#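 Six1/Eya2 binding was read as AlphaScreen signal after compounds were pinned into GST-Six1 plus His-tagged Eya2 (5X stock 250/500 nM) in pH 8.0 Tris/NaCl/TCEP buffer, beads added, then incubated 1 h, 37 C, dark.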
# Starred values were filed as active, the others as inactive; ? = inconclusive; . = not tested or not shown; [ ] = dose if it differs, or a comment.
SMILES,D2 agonist,TRPML1 ag,PINK1 modulator,CtBP-E1A inh,TRPML1 inh,Six1-Eya2 blk
CCNC(=O)c1ccc(C2SCC(=O)N2CCc2ccccc2)cc1 (centres undefined),0.4,1.5,-1.3%,6,5,-2
O=S1(=O)CC(N2CCCCC2)CN1Cc1cn(Cc2cccc(C(F)(F)F)c2)nn1 (centres undefined),.,-0.9,-0.5%,5,.,2
Cc1nnc(NC(=O)CSc2ccccn2)s1,-2.1,-0.3,-1.6%[38.3 µM],4,-3,3
COc1ccccc1C(c1nnnn1CCc1ccccc1)N1CCN(c2ccccc2)CC1 (centres undefined),-2.2,2.6,-0.9%,4,6,-1
C=CCNC(=O)Nc1ccc(Br)cc1Cl,0.5,1.2,5.3%,.,-17,0
CC(C)C[C@@H](CO)NS(=O)(=O)c1c(F)cccc1F,-2.1,-0.3,1.1%,-13,2,5
CCCNC(=S)Nc1ccc(Cl)cc1C,-1.6,-0.1,-0.7%,2,-1,8
O=C1NC2=C(C(=O)CCC2)C(c2ccccc2[N+](=O)[O-])N1 (centres undefined),11,-0.3,-0.5%,-9,7,-18
Cc1nn(Cc2ccc([N+](=O)[O-])cc2)c(=O)n1-c1c(F)cccc1F,1.4,1.5,-1.7%,-12,-6,0
O=C(Nc1ccc2c(c1)OCCO2)C1c2ccccc2OCC(=O)N1Cc1cccnc1 (centres undefined),.,-0.2,-0.5%,5,.,4
COc1ccc(CN2CCN(Cc3ccc(C(F)(F)F)cc3)CC2)cc1,-7.0,2.8,5.2%,-15,62,-8
O=S(=O)(NCCc1ccccn1)c1ccc(-c2ccccn2)s1,-2.3,0.4,-0.8%,-24,-14,-5
Cc1ccc[n+](C(C)C(=O)c2ccc(-c3ccccc3)cc2)c1 (centres undefined),-1.5,-0.7,4.1%,2,-5,28
CC(C)(C)OC(=O)N1CCC[C@H]1c1nnc(SCc2ccccc2F)o1,-3.3,-0.4,0.4%,4,3,1
O=C(O)CSc1ncnc2scc(-c3ccccc3)c12,-4.3,-0.4,-1.2%,4,13,11
CCc1ccc(CSc2nccn2-c2ccccc2)cc1,-2.8,2.6,1.7%,-21,30,?
CCN(CC)C(=O)C1CCCN(c2ccc([N+](=O)[O-])cc2/C=N/NC(=O)c2cccc(Br)c2)C1 (centres undefined),-1.4,1.3,2.7%,1,8,0
COc1ccc(NC(=O)[C@@H]2CCCN2S(=O)(=O)c2ccc(Cl)cc2)cc1,-1.3,0.9,-1.3%,-1,1,-8
COc1ccc(CCNC(=O)CSc2nc(C)nc3c2c(=O)n(C)c(=O)n3C)cc1OC,3.1,-0.6,-0.6%,7,21,13
O=c1c2c(n3cnnc3n1-c1ccccc1)-c1ccccc1CC21CCCCC1,-0.4,-0.2,-0.1%,3,7,-3
COCCCNC(=O)c1ccc2c(c1)NC(=O)C(C(C)C)N2 (centres undefined),.,-0.4,-0.1%,.,10,.
CCc1cc2c(=O)c(-c3nc4ccccc4n3C)coc2c(CN2CCC(C)CC2)c1O,-3.5,0.7,2.7%,5,-13,5
CCCOc1ccc(N2C(=O)CC(SC(=N)N3N=C(c4ccccc4)CC3c3ccccc3)C2=O)cc1 (centres undefined),-3.9,4.0,6.2%,-1,12,4
C=CC(c1ccccc1)C(C(=O)c1ccccc1)N(C)C (centres undefined),-3.1,0.4,3.7%,-6,0,-7
Cc1ccsc1C1NC(=O)c2c(sc3c2CCN(C)C3)N1 (centres undefined),-3.0,5.5,2.0%,1,-7,-20
Cc1cc(C(=O)OCC(=O)NC(C)c2ccc(F)cc2)c(C)o1 (centres undefined),-1.5,-0.8,0.7%,22,-4,-6
O=S(=O)(NC1=NCCCCC1)c1ccc(F)cc1,0.2,0.1,-0.7%,8,3,5
CC(C)C[C@H](NC(=O)c1[nH]cnc1C(=O)N[C@@H](C)C(=O)OC(C)(C)C)C(=O)OC(C)(C)C,-0.1,0.5,-1.1%,-3,-9,-4
CSc1ccccc1NC(=O)Cc1ccc(Br)cc1,-0.5,0.5,0.7%,11,-7,11
Oc1c(Cl)cc(Cl)cc1/C=N/Nc1ncc(Br)cn1,-9.6,0.6,-0.6%,-28,-28,-9
CC1(CCc2ccc3c(c2)OCO3)NC(=O)c2ccccc2N1 (centres undefined),-1.7,0.0,-0.6%,7,-4,-4
O=C(COC(=O)c1cccc(Br)c1)NCCc1ccccc1,-4.7,3.3,-0.9%,14,-3,10
O=[N+]([O-])c1ccc(NN=Cc2ccc3c(c2)OCO3)nc1,0.6,0.3,8.7%,-1,-7,2
CCOC(=O)/C(C#N)=c1/s/c(=C2\C=Cc3ccccc3N2CC)c(=O)n1CC,-1.1,-0.5,14%,0,-3,-8
Cn1c(=O)c2c(ncn2CCC(=O)N/N=C/c2cccnc2)n(C)c1=O,-2.0,0.7,1.2%,8,8,-5
Cc1ccc(NS(=O)(=O)c2ccc(C(=O)NCc3ccc(S(N)(=O)=O)cc3)cc2)cc1,5.2,0.1,1.3%,9,-15,2
COc1ccc(CC(=O)OCC(=O)N2CCCC(C)C2)cc1 (centres undefined),0.2,0.3,3.9%,2,-7,10
COc1ccc(C(=O)N2CCCN(C)CC2)cc1S(=O)(=O)N1CCCc2ccccc21,-1.6,-0.2,-2.2%,0,-5,1
C(=N\Nc1nnnn1-c1ccccc1)/c1ccncc1,-3.4,0.2,-1.9%,-14,5,-15
O=C(CSc1nnc(-c2ccccn2)n1Cc1ccco1)Nc1ccc2c(c1)OCO2,0.1,2.0,-0.8%,-6,5,-7
COc1ccc(C/C(N)=N/OC(=O)c2cccc([N+](=O)[O-])c2)cc1,10,-1.0,-1.1%,5,-6,-28
Cc1ccc(C)c(S(=O)(=O)Nc2ccc3[nH]c(=O)[nH]c3c2)c1,0.4,1.7,6.3%,0,-25,-4
N#Cc1ccccc1Oc1ccc(S(=O)(=O)N2CCCCC2)cn1,-5.5,-1.1,1.7%,2,5,0
Cc1ccc(C2CCN(C(=O)c3cnn(-c4ccccc4Cl)c3C3CCN(C(=O)OC(C)(C)C)CC3)C2)cc1 (centres undefined),.,11,9.5%,.,-22,.
COc1ccc(C(=O)N/C(=C\c2cccc3ccccc23)C(=O)N2CCN(C)CC2)cc1OC,1.5,0.1,-0.3%,2,-13,4
CC(C)NC(=O)Nc1cccc2c1O[C@H](CN(C)C(=O)NC(C)C)[C@@H](C)CN([C@H](C)CO)C2=O,1.8,-0.7,1.2%,32,-5,26
Cc1[nH]nc(Nc2ccc(C(C)C)cc2)c1[N+](=O)[O-],0.7,3.1,-0.7%,?,5,-6
O=C1C2CC=CCC2C(=O)N1CC(=O)N(Cc1ccccc1)C1CCS(=O)(=O)C1 (centres undefined),2.5,-0.1,0.1%[38.3 µM],7,3,7
Cc1ccc(-c2csc(NC(=O)CN3CCOCC3)n2)cc1,-4.0,-0.7,2.5%,-6,-5,-5
CC(C)CCN1CCC[C@]2(N[C@H](c3ccc(C(F)(F)F)cc3)[C@@H]3C(=O)N(Cc4ccccc4)C(=O)[C@@H]32)C1=O,-3.1,-0.1,3.4%,2,-15,2
O=C(Nc1cccc2ccccc12)c1cnccn1,-5.2,0.9,1.5%,0,-16,23
Cc1sc(=NC(=O)c2ccco2)n(C)c1-c1ccccc1,0.8,0.9,.,9,-2,4
Cc1nc2c(-c3ccc(F)cc3)cnn2c2c1CCC2,5.5,-0.2,0.3%,-23,14,18
COc1ccc(N2CCN(C(=S)Nc3cccc(C)c3)CC2)cc1,-0.4,-0.3,2.3%[38.3 µM],6,16,-2
Cc1nnc(-c2cnn(C)c2N)n1Cc1cccc(Cl)c1,-0.5,-0.4,-0.1%,4,3,0
O=C(CNCC1CCCO1)Nc1ccccc1N1CCOCC1 (centres undefined),-2.8,1.5,3.2%[38.3 µM],9,-15,4
COc1cccc(NC(=O)c2ccccc2)c1,-1.9,-0.3,1.3%,1,25,4
CN1C(C(=O)Nc2ccc(F)cc2F)=CC(c2ccc3c(c2)OCO3)=NS1(=O)=O,.,0.1,-1.5%,.,-23,.
COC(=O)c1ccc(OCC(O)CN2CCN(C(=O)c3ccco3)CC2)cc1 (centres undefined),?,0.0,2.5%,.,-5,0
O=C(CC1C(=O)NCCN1Cc1cccc(Oc2ccccc2)c1)NCCc1cscn1 (centres undefined),-4.4,0.1,4.0%,.,-1,2
# New compounds follow.
SMILES,D2 agonist,TRPML1 ag,PINK1 modulator,CtBP-E1A inh,TRPML1 inh,Six1-Eya2 blk
CC1=CCC2COC(c3ccc[n+](Cc4ccccc4)c3)C1C2 (centres undefined),-2.1,0.2,-0.2%,-3,-21,4
Cc1nn(C)c(N)c1[N+](=O)[O-],-2.5,-0.3,0.9%,.,0,6
c1ccc(OCc2nc3ccccc3[nH]2)cc1,-1.1,-0.6,1.7%,2,1,3
CC(C)C[C@H](NC(=O)c1nc[nH]c1C(=O)NC(c1ccccc1)c1ccccc1)C(=O)OCc1ccccc1,-2.0,-0.2,5.0%,-1,-10,-11
CN(CC(=O)Nc1ccc(Cl)c(S(=O)(=O)N2CCOCC2)c1)C(=O)c1ccc(C#N)cc1,-1.8,0.8,2.1%,2,11,-2
COc1ccc(OC)c(S(=O)(=O)n2cnc3ccccc32)c1,-3.9,-0.8,8.9%,9,25,3
Cc1cccc(NC(=S)NC2CCSc3ccccc32)c1 (centres undefined),-1.1,3.6,16%,-17,-16,-19
Nn1c(SCc2cccc(Br)c2)nnc1-c1ccncc1,-2.3,2.1,0.3%,8,-9,-2
COc1cccc(CN2CCN(c3ncccn3)CC2)c1OC,?,0.2,0.6%,1,-10,4
Cc1cc2cc(C)c3nnc(SCC(=O)NCc4ccco4)n3c2cc1C,1.0,1.4,-3.0%[38.3 µM],-9,9,?

# By substructure, the entries above containing fluorine
SMILES,D2 agonist,TRPML1 ag,PINK1 modulator,CtBP-E1A inh,TRPML1 inh,Six1-Eya2 blk
O=S1(=O)CC(N2CCCCC2)CN1Cc1cn(Cc2cccc(C(F)(F)F)c2)nn1 (centres undefined),.,-0.9,-0.5%,5,.,2
CC(C)C[C@@H](CO)NS(=O)(=O)c1c(F)cccc1F,-2.1,-0.3,1.1%,-13,2,5
Cc1nn(Cc2ccc([N+](=O)[O-])cc2)c(=O)n1-c1c(F)cccc1F,1.4,1.5,-1.7%,-12,-6,0
COc1ccc(CN2CCN(Cc3ccc(C(F)(F)F)cc3)CC2)cc1,-7.0,2.8,5.2%,-15,62,-8
CC(C)(C)OC(=O)N1CCC[C@H]1c1nnc(SCc2ccccc2F)o1,-3.3,-0.4,0.4%,4,3,1
Cc1cc(C(=O)OCC(=O)NC(C)c2ccc(F)cc2)c(C)o1 (centres undefined),-1.5,-0.8,0.7%,22,-4,-6
O=S(=O)(NC1=NCCCCC1)c1ccc(F)cc1,0.2,0.1,-0.7%,8,3,5
CC(C)CCN1CCC[C@]2(N[C@H](c3ccc(C(F)(F)F)cc3)[C@@H]3C(=O)N(Cc4ccccc4)C(=O)[C@@H]32)C1=O,-3.1,-0.1,3.4%,2,-15,2
Cc1nc2c(-c3ccc(F)cc3)cnn2c2c1CCC2,5.5,-0.2,0.3%,-23,14,18
CN1C(C(=O)Nc2ccc(F)cc2F)=CC(c2ccc3c(c2)OCO3)=NS1(=O)=O,.,0.1,-1.5%,.,-23,.
